From PubChem
PrP 5UTR inh: inhibition of PrP 5' UTR reporter expression; cell-based PrP 5' UTR mRNA reporter, plate reader; inhibition, % (no concentration beside the values); 0.35% of 340,000 active;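 active = every replicate at 50% or more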;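 note: 0 = median of the neutral control wells; tested in H4 reporter cells; numbers are from one replicate; inactives centre near -14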
BJeLR viability: BJeLR cell viability loss; BJeLR (HRASV12) viability, CellTiter-Glo ATP luminescence, 48 h; reference of the scale not given here; inhibition, % (test concentration not listed); 0.17% of 300,000 active;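 active = replicate mean above 50%; inconclusive = above 50% but judged a plate artefact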;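 note: 50 nL library stock added to about 25 µL; numbers are from one replicate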
Sa RN4220 lethal: S. aureus RN4220 growth inhibition | inhibition, % (test concentration not listed) | 0.33% of 330,000 active | AID 1259311 | OD600, 16 h;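 active = z-score of -3 or lower and OD600 up to 0.18 on both plates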;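 note: plate controls were untreated cells for no effect and reference antibiotic for full effect; stock transfer was 100 nL into about 80 µL; one replicate is shown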
Bead autofluor: counter-screen for toxin protease inhibitors: compound fluorescence | compound autofluorescence counterscreen, microsphere flow cytometry; stronger effect = higher value | fluorescence intensity (test concentration not listed) | 3.1% of 360,000 active | AID 624483;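 active = at least 3 SD above the mean of all compounds, about 16000 in these data; inconclusive = too few beads counted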;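 note: 100 nL of 1 mM stock went into each well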
Mtb hypoxia inh: Mtb hypoxia fluorescent reporter inhibition; M. tuberculosis hypoxia-regulated fluorescent reporter, fluorescence; fluorescence inhibition, % (no concentration beside the values); 0.1% of 300,000 active;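 active = 35 to 45% if threefold the growth effect, above 45% if 1.5-fold the growth effect; inactive = the rest, general growth blockers included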;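 note: wells of about 50 µL received 100 nL stock; 0% = vehicle wells and 100% = reference inhibitor wells; whole bacteria with a GFP reporter of the hypoxia response; strong numbers were not always called active; many hits fall short of the cut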
ugtP null kill: compounds lethal to S. aureus RN4220 ugtP deletion mutant; AID 1259309; OD600 growth, 16 h; some inactives read as strong as hits; growth inhibition, % (test concentration not listed); 0.54% of 330,000 active;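 active = z-score under -3 and OD600 up to 0.15 on both plates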;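 note: plate controls were untreated wells for no effect and antibiotic for full effect; wells of about 80 µL received 100 nL stock; the first replicate is given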
Mtb hypoxia inh growth: second read-out of Mtb hypoxia inh, no call of its own (marks repeat the call); growth inhibition, %; measured here: M. tuberculosis growth (absorbance);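 0% = vehicle and 100% = reference antibiotic; read after six days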
An asterisk follows results filed as active; ? = inconclusive; · = no result given.

SMILES	PrP 5UTR inh	BJeLR viability	Sa RN4220 lethal	Bead autofluor	Mtb hypoxia inh	Mtb hypoxia inh growth	ugtP null kill
CCOc1ccc(CCNC(=O)c2cccnc2N2CCCC2)cc1OCC	-16	18	-2.2	3315	12	8	1
O=S(=O)(Nc1ccc(N2CCCCC2)cc1)c1ccccc1	-20	7	-1.4	9131	7	-1	14
COc1cccc(NC(=O)c2cccc(C(=O)Nc3cccc(OC)c3)c2)c1	-10	-2	5.8	4114	14	4	6
Cc1ccc(NC(=O)C(c2ccccc2)N2CCN(CC(=O)N3CCOCC3)CC2)cc1 (configuration not stated)	-49	·	1.7	4122	18	8	0
O=C(Nc1ccc(Br)cc1)c1cc(-c2cccs2)on1	-5	4	-5.8	2930	-8	-7	-6
Cn1c2ccccc2n2c(=O)c(=O)n(CC(=O)N3CCCc4ccccc43)nc12	·	4	-3.8	·	-9	-6	-10
O=C(CSc1nnc(-c2cccnc2)n1Cc1ccco1)N1CCc2ccccc21	-17	10	7.4	10020	2	12	-6
O=C(COC(=O)c1c[nH]c(=O)[nH]c1=O)NCc1ccccc1	-27	1	1.9	2462	-2	-1	-7
CC(=O)C(=NNc1ccccc1)Oc1ccc([N+](=O)[O-])cc1	·	·	-6.0	·	6	7	4
NNC(=O)CNS(=O)(=O)c1ccc([N+](=O)[O-])cc1	-4	-3	12	3364	5	-4	-4

Reprinted from the results shown for reference:
SMILES	PrP 5UTR inh	BJeLR viability	Sa RN4220 lethal	Bead autofluor	Mtb hypoxia inh	Mtb hypoxia inh growth	ugtP null kill
O=S(=O)(Nc1ccc(N2CCCCC2)cc1)c1ccccc1	-20	7	-1.4	9131	7	-1	14
COc1cccc(NC(=O)c2cccc(C(=O)Nc3cccc(OC)c3)c2)c1	-10	-2	5.8	4114	14	4	6

(list continues)
SMILES	PrP 5UTR inh	BJeLR viability	Sa RN4220 lethal	Bead autofluor	Mtb hypoxia inh	Mtb hypoxia inh growth	ugtP null kill
CC(C)NS(=O)(=O)c1ccc2c3c(cccc13)CC2	-30	3	3.5	4568	6	8	-1
COc1cccc(NC(=O)CSc2nnnn2C2CCCC2)c1	-10	7	3.2	6416	20	3	3
COC(c1ccccc1)c1nnc(CCC(=O)NCc2cccc(-n3cccn3)c2)o1 (configuration not stated)	-20	5	2.7	2360	12	2	7
Cc1cc(N2CCC(N(C)C3CCCC3)CC2)nc2cc(O)ccc12	-7	19	2.3	4332	12	7	9
C=C1N(c2cccc(Cl)c2)C(=O)OC1(C)C	-26	9	4.0	4982	9	1	3
COc1ccc2nc(C)cc(SCC(=O)OC(C)C)c2c1	11	-3	7.5	4205	24	11	-1
CCN(CC)C(=O)C1CCCN(c2ncnc3c2cnn3-c2ccc(Cl)cc2)C1 (configuration not stated)	22	2	-3.6	4305	5	16	12
O=C(Nc1ccc2c(c1)nc1n2CCSC1)c1ccco1	12	0	7.4	9289	10	6	-5
Cc1sc2ncnc(SCC(=O)NCC3CCCO3)c2c1C (configuration not stated)	-13	·	3.1	7814	17	10	-1
c1cncc(-c2nn3c(Cn4cnc5ccccc54)nnc3s2)c1	-17	-1	5.3	10907	-2	-1	13
Cc1cc(N(CCCl)CCCl)ccc1C=NNC(=O)c1cccnc1	-11	·	2.4	2996	12	7	-6
COc1nc(Nc2ccc(O)cc2)nc(OC(C(F)(F)F)C(F)(F)F)n1	-18	-3	2.9	16552*	-2	2	-8
Cc1cccc(OCCCC(=O)NCc2ccco2)c1	-12	-17	0.9	17050*	0	-3	0
O=C(CCC(=O)N1CCCCCC1)NCc1ccc(F)cc1	-17	-3	1.4	·	20	3	4
CCC1CCCCN1C(=O)CSc1nnc(-c2cccs2)o1 (configuration not stated)	-53	-5	2.9	2475	·	·	-10
O=C(NCCc1ccc(Cl)cc1)C1CCN(S(=O)(=O)c2cccs2)CC1	2	9	-3.9	4459	-8	15	-12
Cn1ccnc1C(O)(c1ccccc1)c1nccn1C	-7	0	5.3	4950	10	5	5
Cc1ccc(CNC(=O)c2nnc(CS(=O)(=O)c3ccccc3)o2)cc1	-11	-2	-5.4	5536	2	4	12
COc1ccc(CCNC(=O)CCOc2ccc(C)cc2)cc1OC	-24	-17	2.0	5112	8	4	4
CCC(CC)c1nnc(NC(=O)c2ccc(N3CCCCC3)c([N+](=O)[O-])c2)s1	-3	0	2.1	2185	-4	-2	-18
COc1cccc(NC(=O)CC2C(=O)NCCN2C(=S)Nc2ccc(F)cc2)c1 (configuration not stated)	-4	-9	-0.3	4547	-10	-13	9
CC(C)CCNC(=O)CSc1nc2ccccc2c(=O)[nH]1	5	5	3.2	17172*	·	·	12
Cc1c(OCC(=O)N(C)C)ccc2c3c(c(=O)oc12)CCCCC3	-9	0	5.8	2686	11	0	9
CCOc1ccccc1-c1nc(SCC(=O)O)n[nH]1	-4	2	4.6	2406	·	·	-2
COc1ccc(NC(=O)CCCNC(=O)c2ccc(Cl)cc2)c(OC)c1	-31	10	-0.4	4031	16	5	2
O=Cc1sc([O-])nc1-[n+]1ccc2ccccc2c1	·	1	2.1	·	0	-1	5
COc1ccc(/C(N)=N/OC(=O)CSc2ccc(C)cc2)cc1	-47	2	8.6	8372	2	1	69
O=S1(=O)CCN(Cc2ccc(Cl)c(C(F)(F)F)c2)CC1	-15	-7	2.5	2563	4	12	4
COc1ccccc1NC(=O)c1cnc2c(-c3ccccc3)c(C)nn2c1C	-29	-1	4.9	2505	14	16	68
CC(=O)c1cccc(NC(=O)C2CC(=O)N(c3cccc(C)c3C)C2)c1 (configuration not stated)	4	-5	2.9	15779	4	-2	11
CC(C)Cn1c(CCCNC(=O)c2ccc(F)cc2)nc2ccccc21	-12	-4	-1.3	5510	1	8	0
COc1cccc(NC(=O)C2CC(=O)N(Cc3ccco3)C2)c1 (configuration not stated)	14	·	2.1	3978	6	2	1
CCOc1ccc(Nc2nnc(Cc3ccc(OC)cc3)c(=O)[nH]2)cc1	-31	5	·	4152	·	·	·
NNc1nc(-c2ccccc2)cc(-c2ccccc2)n1	-12	5	8.9	4175	3	17	4
O=c1[nH]ncc(NN=Cc2ccncc2)c1Cl	·	·	3.0	·	7	0	3
O=C(C1=C(O)C(=O)N(CCN2CCOCC2)C1c1ccc(Br)cc1)c1cc2ccccc2o1 (configuration not stated)	-21	2	15	4115	-1	1	3
O=c1cc(O)c(-c2cccc(Cl)c2)c(Cl)[nH]1	-5	5	-0.7	4714	·	·	7
Cn1c(=NC(=O)CSCC(=O)N2CCOCC2)sc2ccccc21	-5	-3	1.3	2797	·	·	2
CNC(=S)Nc1cc(C(F)(F)F)ccc1Cl	-45	8	-3.2	2656	6	4	-5
COC(=O)c1c(C#N)c(N)nc2c1CCCC2	-17	-2	-19	3250	4	12	0
CC(C)CCOCC(=O)Oc1ccccc1C(=O)O	5	5	-13	3434	9	8	-7
CCN1CCN(S(=O)(=O)c2ccc(C(=O)Nc3ccccc3)cc2)CC1	-20	8	·	5457	·	·	·
c1ccc2sc(NC3=NCN(CCN4CCOCC4)CN3)nc2c1	-5	1	5.3	3329	8	12	6
Cc1ccc(CNS(=O)(=O)c2ccc(-n3cnnn3)c(C)c2)cc1	-15	-6	3.1	2881	-3	-5	1
CC1=CC(C)(C)N2C(=O)C3(C(C#N)=C(N)Oc4cc(O)ccc43)c3c(C)c(C)cc1c32 (configuration not stated)	-34	-6	-5.6	23874*	3	16	-47
CCC(c1nnc(SCC(=O)Nc2cc(C)on2)o1)N(C)C (configuration not stated)	-3	·	-0.3	?	5	12	-3
Fc1ccc(N/N=C(/c2ccccc2)c2ccccn2)cc1	-3	19	·	2038	·	·	·
CC(=O)Nc1ccc(S(=O)(=O)Nc2ccccc2N2CCOCC2)cc1	-12	·	7.9	6307	5	-10	9
COc1ccc(C(=O)c2cc3c(cc2[N+](=O)[O-])OCCO3)cc1	-15	2	-1.1	2136	10	18	13
O=C(N/N=C/c1cccs1)c1ccc2ncccc2c1	-16	-5	·	3832	·	·	·
(cont.)
SMILES	PrP 5UTR inh	BJeLR viability	Sa RN4220 lethal	Bead autofluor	Mtb hypoxia inh	Mtb hypoxia inh growth	ugtP null kill
COc1ccc(C(=O)NC(C)c2nnc(SCC(=O)Nc3nc(C)cs3)n2C)cc1 (configuration not stated)	-18	12	1.2	9780	11	8	7
O=C(CC(CC(=O)c1ccccc1)c1ccccn1)c1ccccc1	-5	·	6.2	2997	10	6	12
O=C(NCc1cccnc1)c1cccc(S(=O)(=O)Nc2cccc(Cl)c2)c1	-10	·	3.7	3473	0	6	0
Cc1cc2c(=O)n(C)c(SCC(=O)Nc3cccc(F)c3)nc2s1	-9	-8	-1.6	6255	-5	-2	-3
CC(=C1C(=O)c2ccccc2C1=O)N1CCN(c2ccccn2)CC1	-4	-1	1.5	2440	·	·	0
CS(=O)(=O)Nc1ccc(C(=O)NCCSC2CCCCC2)cc1	-8	-7	-0.6	12927	-2	9	2
O=C(NC=NOCc1cccc(C(F)(F)F)c1)N1OCC2COc3ccc4ccccc4c3C21 (configuration not stated)	·	·	-2.4	·	9	0	-14
Cc1nn(-c2cccc(Cl)c2)c(Cl)c1/C=N/NC(=O)c1cccnc1	-8	-2	·	2577	·	·	·
O=C(O)c1cccc2sc3cc(Cl)ccc3c(=O)c12	-9	·	4.2	4357	6	9	2
COC(=O)Cc1ccc(NC(=S)NC(C)(C)C)cc1	1	0	6.6	3931	1	4	8

Brought forward from above: 5 entries, followed by the next part.
SMILES	PrP 5UTR inh	BJeLR viability	Sa RN4220 lethal	Bead autofluor	Mtb hypoxia inh	Mtb hypoxia inh growth	ugtP null kill
CS(=O)(=O)Nc1ccc(C(=O)NCCSC2CCCCC2)cc1	-8	-7	-0.6	12927	-2	9	2
O=C(NC=NOCc1cccc(C(F)(F)F)c1)N1OCC2COc3ccc4ccccc4c3C21 (configuration not stated)	·	·	-2.4	·	9	0	-14
Cc1nn(-c2cccc(Cl)c2)c(Cl)c1/C=N/NC(=O)c1cccnc1	-8	-2	·	2577	·	·	·
O=C(O)c1cccc2sc3cc(Cl)ccc3c(=O)c12	-9	·	4.2	4357	6	9	2
COC(=O)Cc1ccc(NC(=S)NC(C)(C)C)cc1	1	0	6.6	3931	1	4	8
CCCCSc1ncc(C(=O)OCC)c(N)n1	-94	2	18	3592	21	12	7
O=C1CC(c2cccc(Cl)c2)CC(O)=C1C=NCCCO (configuration not stated)	-10	1	5.9	4616	·	·	1
COc1ccc(O)c(C2=Nc3ccccc3N=C(c3ccco3)C2)c1	-8	0	2.3	2560	7	4	6
C(=N\Nc1nc(-c2ccccc2)cs1)/c1cccs1	-125	2	·	4463	·	·	·
COc1cc(C=CCO)cc(OC)c1OC1OC(CO)C(O)C(O)C1O (configuration not stated)	·	·	4.1	·	5	5	0
CCn1c(C)c(C)c2cc(C(=O)Nc3cccc(Cl)c3)ccc21	-4	-1	13	2788	·	·	-12
COc1ccc(Cc2noc(CN3CCNC(=O)CC3)n2)cc1OC	-13	0	0.6	2113	8	-2	5
CC(NC(=O)C1CCCCC1)c1ccc2c(c1)OCCO2 (configuration not stated)	-9	5	-0.5	4218	19	8	4
COc1ccc(CCNS(=O)(=O)c2cccs2)cc1	-18	12	0.1	4032	·	·	17
NC(=O)c1ccc(NC(=O)COC(=O)c2ccc(Cl)nc2)cc1	-7	·	2.2	3505	8	-11	3
CCOc1ccccc1NC(=O)COC(=O)c1cccc(-c2ccc(OC(C)=O)cc2)c1	-6	-4	-1.6	2447	8	4	-4
O=C(CC1C(=O)NCCN1C(=O)c1ccc(F)cc1)OCc1ccccc1 (configuration not stated)	-7	11	0.0	4021	·	·	6
Cc1ccc(S(=O)(=O)CCC(=O)NCc2ccccc2)cc1	-19	2	3.7	2261	9	5	4
CC1CC(C)(C)CC2(C1)NC(=O)N(CC(=O)N(C)Cc1nc3ccccc3c(=O)[nH]1)C2=O (configuration not stated)	-6	·	4.5	7934	2	4	0
CC1CN(C(=S)SCCN2Cc3ccccc3C2=O)CC(C)O1 (configuration not stated)	-18	7	9.7	2078	13	4	4
COc1ccc(CNC(=O)CN2CCC(C(=O)c3ccc(OC)cc3)CC2)cc1	-17	-7	-1.3	10407	3	5	3
Cc1ccc(C(C)C)c(OCC(=O)NN=C2CC(=O)CC(C)(C)C2)c1	·	·	0.6	·	4	-11	10
CC1(C)COC(Nc2ccc(Cl)cc2)=N1	-6	-5	4.3	5496	-3	-1	4
CCCc1nnc(NC(=O)CSc2ncn[nH]2)s1	-27	8	-19	3241	-5	-4	-3
OCC(O)C1OC(Nc2ccc(Br)cc2)C(O)C1O (configuration not stated)	-35	8	2.6	4592	4	14	-2
